Screening data as filed in PubChem.
Cruzain Triton = inhibitors of Trypanosoma cruzi cruzain with detergent; P25779; hit rate 0.43% among 200,000; purified cruzain, Z-FR-AMC fluorescence, 0.01% Triton; Potency, µM, for inactives: max response, negative = inhibition, most hits filed as inhibitors;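 further: plate controls were neutral wells for no effect and buffer without enzyme for full effect; nearly all actives have a fitted effect of over 40% in size; top concentration of the series not given in the record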
Target sequence (P25779 123-467 limits assumed): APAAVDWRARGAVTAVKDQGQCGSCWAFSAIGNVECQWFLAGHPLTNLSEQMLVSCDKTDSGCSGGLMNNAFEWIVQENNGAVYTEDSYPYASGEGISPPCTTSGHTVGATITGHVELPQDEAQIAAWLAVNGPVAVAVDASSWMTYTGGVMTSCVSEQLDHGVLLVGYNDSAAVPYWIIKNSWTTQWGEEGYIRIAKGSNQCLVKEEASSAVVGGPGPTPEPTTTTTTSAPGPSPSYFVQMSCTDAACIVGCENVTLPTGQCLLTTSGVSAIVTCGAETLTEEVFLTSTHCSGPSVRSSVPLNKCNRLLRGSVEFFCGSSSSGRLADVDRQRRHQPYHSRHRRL
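In this qHTS format, compounds are incubated with 1.5 nM cruzain for 15 min at room temperature before 2 uM Z-FR-AMC is added. Release of AMC is followed at 360/450 nm, and progress is taken as the 60 s fluorescence difference.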
Cruzain inh noDet = cruzain (T. cruzi) inhibition without detergent | P25779 | purified cruzain, Z-FR-AMC fluorescence, no detergent | Potency, µM, for inactives: max response, negative = inhibition, hits mostly inhibitors | hit rate 2.3% among 200,000 | AID 1476;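 further: plate controls were enzyme without inhibitor for no effect and buffer without enzyme for full effect; nearly all actives have a fitted effect of over 40% in size; top concentration of the series not given in the record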
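Detergent-free condition (0.00005% Triton X-100) in acetate buffer pH 5.5 with DTT. 1.5 nM enzyme and compound were pre-mixed 15 min, then 2 uM Z-FR-AMC substrate added; reaction progress from fluorescence change between first and third reads (60 s).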
Active calls of the source: *; ? = inconclusive; & = joins results of further samples. The call rests on the fitted dose curve; in most records, active means well fitted curve in the direction sought with a large enough effect; inconclusive means small, poorly fitted or top-dose-only effect, or another doubt; inactive means no such curve, though single readings can be large; an effect the other way counts as inactive or inconclusive. Potency means the concentration at half of the fitted maximal effect. This is a subset. The share of hits here may be higher or lower than overall.

no. | structure | Cruzain Triton | Cruzain inh noDet
1 | O=C(/C=C/c1ccc(O)c(O)c1)OC1C[C@](O)(C(=O)O)C[C@@H](O)[C@H]1O (stereo partly drawn) | -2.6%&-2.8% | -7.9%&-4.6%
2 | C=CC#N | -0.2% | 13.9%
3 | CN[C@@H]1[C@H](O[C@H]2[C@H](O[C@H]3[C@H](O)[C@@H](O)[C@H](N=C(N)N)[C@@H](O)[C@@H]3N=C(N)N)O[C@@H](C)[C@]2(O)C=O)O[C@@H](CO)[C@H](O)[C@H]1O | 0.8% | 6.1%
4 | Nc1nc2ccc([N+](=O)[O-])cc2s1 | -5.7% | -11.0%
5 | NCCC[C@@H](CC(=O)N[C@@H]1CCCC[C@H]1C(=O)N[C@H](CC(=O)N[C@@H](CCC(=O)O)CC(=O)O)Cc1ccccc1)NC(=O)C[C@H](Cc1ccccc1)NC(=O)[C@@H]1CCCC[C@H]1N | 2.3% | ?
6 | COC(=O)C1(C(C)=O)CC2=CC[C@@H]3C(=O)N(c4ccccc4)C(=O)[C@@H]3[C@@H]2Cc2ccccc2[C@@H]1C[N+](=O)[O-] (stereo partly drawn) | 2.5% | 0.4%
7 | C=C(C)C1CC=C(C)C(OC(C)=O)C1 (stereo not drawn) | 2.0% | 4.8%
8 | CO[C@@H](C)[C@](O)(C(=O)OCC1=CCN2CC[C@@H](O)[C@H]12)C(C)C | -1.7% | -4.4%
9 | CC(C)C[C@@H](CC(=O)N[C@H](CC(=O)N[C@@H]1CCCC[C@H]1C(=O)N[C@H](CC(=O)N[C@@H](CCC(=O)O)CC(=O)O)Cc1c[nH]c2ccccc12)C(C)C)NC(=O)[C@@H]1CNCC[C@H]1N | -1.8% | 8.8%
10 | C=C(C)C(=O)OCC1CO1 (stereo not drawn) | 5.6% | -3.0%
11 | COC(C)=O | 7.7% | 0.4%
12 | O=C(O)c1ccc(B(O)O)cc1 | -2.2% | 0.5%
13 | O=C(/C=C\c1ccc(O)c(O)c1)O[C@@H]1C[C@](O)(C(=O)O)C[C@@H](O)[C@@H]1O | -3.3% | -7.0%
14 | O=c1[nH]c(=O)n([C@@H]2O[C@H](CO)[C@@H](O)[C@H]2O)cc1Br | -0.1% | -3.1%
15 | NC(=O)Nc1nc2ccccc2[nH]1 | -13.2% | -18.7%
16 | CC(=O)Oc1cc(OC(C)=O)c2c(=O)cc(-c3ccc(OC(C)=O)c(OC(C)=O)c3)oc2c1 | ? | ?
17 | C=C(C)C(=O)OC | 3.3% | 3.2%
18 | COC(=O)c1ccc(C(NC(=O)c2ccccc2)[C@]2(C)C[C@H]2C2CCCCC2)cc1 (stereo partly drawn) | 0.9% | -15.4%
19 | C#C[C@@]1(O)CC[C@@H]2[C@@H]3CCC4=CC(=O)CC[C@@]4(C)[C@H]3CC[C@]21C | -2.2% | -5.6%
20 | COC(=O)c1ccc(C(/C=C/[C@@H](C)C(=O)N[C@H](C)CO)NC(=O)OCc2ccccc2)cc1 (stereo partly drawn) | 1.4% | 3.4%
21 | CC(C)CC1(C(=O)O)C=CCN1C(=O)c1ccccc1 (stereo not drawn) | 2.0% | -4.9%
22 | CC(C)(c1ccccc1)c1ccc(O)cc1 | -2.9% | 3.9%
23 | Cc1cc2nc3c(=O)[nH]c(=O)nc-3n(CC(O)C(O)C(O)COP(=O)(O)O)c2cc1C (stereo not drawn) | -1.7% | -17.2%
24 | COC(=O)C1(C(=O)OC)CC2=CC(CC2=O)Cc2ccccc2[C@@H]1C[N+](=O)[O-] (stereo partly drawn) | 1.9% | -7.9%
25 | CCCCCNCCCCC | 2.2% | -1.8%
26 | C=CC[C@]1(O)CCC2C3CCC4=CCCCC4C3CCC21C (stereo partly drawn) | -0.4% | 8.3%
27 | CC[C@H](CC[C@@H](C)C1CC[C@H]2[C@@H]3CC=C4C[C@@H](O)CC[C@]4(C)[C@H]3CC[C@]12C)C(C)C (stereo partly drawn) | -1.6% | -6.3%
28 | CN(C)C(=S)SC(=S)N(C)C | -1.1% | -1.8%
29 | CCCCC(CC)COC(=O)COc1ccc(Cl)cc1Cl (stereo not drawn) | 1.3% | 3.6%
30 | COc1cc(/C=C\C(=O)N2CCC=CC2=O)cc(OC)c1OC | -3.3% | -13.3%

Compounds 26 through 27, quoted:
no. | structure | Cruzain Triton | Cruzain inh noDet
26 | C=CC[C@]1(O)CCC2C3CCC4=CCCCC4C3CCC21C (stereo partly drawn) | -0.4% | 8.3%
27 | CC[C@H](CC[C@@H](C)C1CC[C@H]2[C@@H]3CC=C4C[C@@H](O)CC[C@]4(C)[C@H]3CC[C@]12C)C(C)C (stereo partly drawn) | -1.6% | -6.3%

3 compounds picked at random from those above, as already listed:
no. | structure | Cruzain Triton | Cruzain inh noDet
12 | O=C(O)c1ccc(B(O)O)cc1 | -2.2% | 0.5%
29 | CCCCC(CC)COC(=O)COc1ccc(Cl)cc1Cl (stereo not drawn) | 1.3% | 3.6%
17 | C=C(C)C(=O)OC | 3.3% | 3.2%

Continued:
no. | structure | Cruzain Triton | Cruzain inh noDet
31 | COc1c(C(C)(C)C)cc([N+](=O)[O-])c(C)c1[N+](=O)[O-] | -3.3% | -5.5%
32 | CCCn1c(-c2ccc(F)cc2)nc2c(NC3CCN(Cc4ccccc4)CC3)nc(C)nc21 | -2.1% | -5.5%
33 | CC(C)NC(=O)[C@H]1C[C@@H]1[C@H](NC(=O)OCc1ccccc1)c1ccccc1 | -7.5% | -9.8%
34 | Cc1cccc(C(=O)O)c1 | -4.3% | -28.6%
35 | CC[C@H]1C2=C3C(CC[C@H]4C(OCc5ccc(F)cc5C(F)(F)F)OC[C@](C)([C@@H]34)N(C(=O)OC(C)(C)C)C2)C(COC)C1COC (stereo partly drawn) | -4.9% | -5.4%
36 | COC(=O)c1ccc(C(NC(=O)OCc2ccccc2)/C(F)=C/[C@@H](C)C(=O)NCCc2c[nH]c3ccc(OC)cc23)cc1 (stereo partly drawn) | -0.6% | -15.6%
37 | OC[C@H]1O[C@@H](n2cnc3c(NCc4ccccc4)ncnc32)[C@H](O)[C@@H]1O | -2.9% | -3.5%
38 | CCC(C(=O)C(C)C(O)C(C)CCc1ccc(C)c(O)c1C(=O)O)C1OC(CC)(C2CC[C@@](O)(CC)C(C)O2)CC1C (stereo partly drawn) | -4.9% | ?
39 | COc1ccc2c(c1)C(c1ccccc1C)CC(=O)O2 (stereo not drawn) | 0.6% | -3.0%
40 | O=C(O)CN(CC(=O)O)Cc1cc2c(-c3ccccc3C(=O)O)c3cc(CN(CC(=O)O)CC(=O)O)c(=O)cc-3oc2cc1O | -9.5% | 26.4%
41 | COC(=O)C1(O)CC2OC1(C)n1c3ccccc3c3c4c(c5c6ccccc6n2c5c31)C(=O)NC4 (stereo not drawn) | 1.1% | -7.8%
42 | CN(C)c1ccc(N=O)cc1 | 25.1µM* | 31.6µM*
43 | CNC[C@H](O)c1ccc(OC(=O)C(C)(C)C)c(OC(=O)C(C)(C)C)c1 | -0.4% | 0.8%
44 | CCCn1c(-c2ccc(F)cc2)nc2c(NCCN(C(C)C)C(C)C)nc(C)nc21 | -4.6% | -4.4%
45 | FC(F)(F)c1cccc(Cl)c1 | 6.6% | 2.1%
46 | COc1ccc2c(c1)C(=O)[C@@H](OC(=O)Nc1ccc(C)c(Br)c1)[C@H](c1ccc(OC)c(Br)c1)O2 | 1.3% | 25.1µM*
47 | c1cc2c(cc1[C@H]1OC[C@@H]3[C@H]1CO[C@H]3c1ccc3c(c1)OCO3)OCO2 | -1.4% | 6.5%
48 | CCCCC(=O)N(C)C | 4.8% | 0.6%
49 | CC1OC(C)OC(C)O1 (stereo not drawn) | 1.5% | -2.9%
50 | C[C@@](Cc1ccccc1)(NC(=O)CN)c1ccccc1 | 3.5% | 5.4%
51 | CCCn1c(-c2ccc(F)cc2)nc2c(NCCN(CC)CC)nc(C)nc21 | 0.3% | -7.1%
52 | C[C@@H](C(=O)NCc1nc2ccccc2[nH]1)[C@@H]1C[C@@]1(C)[C@@H](NC(=O)OCc1ccccc1)c1ccccc1 | -16.4% | -3.2%
53 | O=C(/C=C/c1ccc(OCc2ccccc2)cc1)c1cccs1 | 2.7% | 9.8%
54 | C#C[C@@]1(OC(C)=O)CC[C@@H]2[C@@H]3CCC4=C[C@@H](OC(C)=O)CC[C@H]4[C@H]3CC[C@]21C | -8.6% | -14.4%
55 | CC(C)CCON=O | 5.6% | -6.2%
56 | ClC(Cl)Cl | 5.2% | -7.4%
57 | NC(=O)c1ccc[n+]([C@@H]2O[C@H](COP(=O)([O-])OP(=O)(O)OC[C@H]3O[C@@H](n4cnc5c(N)ncnc54)[C@@H](O)[C@@H]3O)[C@@H](O)[C@@H]2O)c1 | -0.4% | -10.1%
58 | ClC=CCl | 2.7% | -4.3%
59 | NCCC[C@@H](CC(=O)N[C@@H]1CCNC[C@H]1C(=O)N[C@H](CC(=O)N[C@@H](CCC(=O)O)CC(=O)O)Cc1c[nH]c2ccccc12)NC(=O)C[C@H](Cc1c[nH]c2ccccc12)NC(=O)[C@@H]1CNCC[C@H]1N | 3.4% | -3.2%
60 | CCCCC/C=C\C/C=C\C/C=C\C/C=C\CCCC(=O)NCCCl | -29.6% | 13.3%

Some values from the entries so far:
Cruzain inh noDet result of cpd 47 : 6.5%
Cruzain Triton result of cpd 51 : 0.3%

The listing continues:
no. | structure | Cruzain Triton | Cruzain inh noDet
61 | CCN1CCCC1Cn1c(-c2ccccc2)nc2c(NCc3ccccc3)nc(C)nc21 (stereo not drawn) | 4.0% | 2.5%
62 | C=C(C)[C@]12C[C@@H](C)[C@@]34O[C@](Cc5ccccc5)(O[C@@H]1[C@@H]3C=C(COC(=O)Cc1ccc(O)c(OC)c1)C[C@]1(O)C(=O)C(C)=C[C@@H]41)O2 | 2.7% | ?
63 | O=C(Cl)c1ccccc1F | 1.1% | -2.9%
64 | CC(C)=CCC[C@](C)(O)C1CC=C(C)CC1 (stereo partly drawn) | 1.3% | 11.0%
65 | CCCn1c(C)nc2c(NCCN(C)C)nc(C)nc21 | -1.6% | 0.3%
66 | CC[C@H](C)[C@@H](NC(=O)O[C@@H]1Cc2cc(OC)ccc2O[C@H]1c1cccc(OC)c1)C(=O)OC | -4.2% | 4.3%
67 | CC(=O)c1ccccc1[N+](=O)[O-] | 0.9% | -3.4%
68 | COc1cc(C2CC(=O)Oc3cc(C)c(Cl)cc32)cc(OC)c1OC (stereo not drawn) | 0.2% | ?
69 | COC(=O)CC[C@@H](C)[C@H]1CC[C@H]2[C@@H]3CC[C@@H]4C[C@H](O)CC[C@]4(C)[C@H]3C[C@H](O)[C@]12C | -6.1% | ?
70 | O=Cc1cccc(Br)c1 | 1.7% | 1.2%
71 | CC(C)C[C@@H](CC(=O)N[C@@H](CCC(=O)O)CC(=O)O)NC(=O)[C@@H]1CCCC[C@H]1NC(=O)C[C@H](CCCN)NC(=O)C[C@H](CO)NC(=O)[C@@H]1CCCC[C@H]1N | 2.6% | 10.8%
72 | O=C(NCC1CCCCC1)c1nnc(C(=O)NCC2CCCCC2)c2c1[nH]c1ccccc12 | 2.0% | -0.7%
73 | Nc1cccc(Cl)c1 | -0.4% | 5.3%
74 | NCC(=O)N[C@@H](CCCN=C(N)N)C(=O)NCC(=O)N[C@@H](CC(=O)O)C(=O)N[C@@H](CC(N)=O)C(=O)N1CC[C@@H](C(=O)O)C1 | 0.5% | -4.4%
75 | CN(C)c1ccc(N(C)C)cc1 | -0.1% | -9.8%
76 | CC(C)=C1C(=O)C(c2ccccc2)=C2CN3C(=O)N(CCc4ccccc4)C(=O)[C@]3(Cc3ccccc3)[C@H]21 | -2.0% | -3.1%
77 | C[C@@]1(O)CCOC(=O)C1 | -3.2% | -1.6%
78 | ClC1=C(Cl)C2(Cl)C3C4CC(C5OC45)C3C1(Cl)C2(Cl)Cl (stereo not drawn) | -2.2%&4.5% | 1.58µM*
79 | CCC(C)O (stereo not drawn) | 1.2% | -1.9%
80 | c1ccc2cc3c(cc2c1)-c1cccc2cccc-3c12 | -1.8% | -4.3%
81 | C[C@@]1(O)C(O)[C@@H](CO)O[C@H]1n1cnc2c(NC3CCCC3)nc(Cl)nc21 (stereo partly drawn) | -1.7% | 5.5%
82 | CC(=O)Oc1cccc(C)c1 | 2.4% | -0.7%
83 | C[C@@H](Cc1ccccc1)NCCC(c1ccccc1)c1ccccc1 | 3.6% | 15.8%
84 | CC(C)Br | 3.4% | 3.6%
85 | Cc1cc(=O)oc2cc(O[C@@H]3O[C@H](C(=O)O)[C@@H](O)[C@H](O)[C@H]3O)ccc12 | -0.1% | 0.5%
86 | N#CCc1ccccc1[N+](=O)[O-] | -1.1% | -1.9%

An excerpt from above in order of molar mass, rising.
no. | structure | Cruzain Triton | Cruzain inh noDet
81 | C[C@@]1(O)C(O)[C@@H](CO)O[C@H]1n1cnc2c(NC3CCCC3)nc(Cl)nc21 (stereo partly drawn) | -1.7% | 5.5%
18 | COC(=O)c1ccc(C(NC(=O)c2ccccc2)[C@]2(C)C[C@H]2C2CCCCC2)cc1 (stereo partly drawn) | 0.9% | -15.4%
69 | COC(=O)CC[C@@H](C)[C@H]1CC[C@H]2[C@@H]3CC[C@@H]4C[C@H](O)CC[C@]4(C)[C@H]3C[C@H](O)[C@]12C | -6.1% | ?
